# YjeE inh = YjeE (TsaE) inhibition, E. coli | Potency, µM | P0AF67 | purified YjeE, fluorescence polarisation of a bound ADP probe | actives 0.05% (n = 71,000); active = well fitted falling curve; inconclusive = weaker or top-dose-only fall, or a rising curve; inactive = flat or poorly fitted curve;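 also: top concentration of the series not given in the record; excess ADP was the control for the full effect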
#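 Purified YjeE (10 uM) with BODIPY Texas Red-labeled ADP probe (2 uM); compounds pin-transferred, 15 min at room temperature. Binding inhibition read as decreased fluorescence polarization; ADP titration as control.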
# PK Bst = pyruvate kinase (B. stearothermophilus) modulation; partly purified Bacillus stearothermophilus pyruvate kinase, luminescence ATP production; ribose 5-phosphate activator present at AC10; Potency, µM; actives 1.2% (n = 51,000); AID 361; in the data active means potency below about 11 µM; inconclusive means mostly about 12 µM to 25 µM; inactive means weaker than that;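 the screen sought inhibitors and activators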;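 also: potency is read from the fitted curve at half-maximal effect; scaled between full activation by ribose 5 phosphate and full inhibition by luteolin; about four in five hits inhibit and the cells do not say which; series up to 57 µM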
# * marks the source's active call; other numbers are inactive results; i = inactive; u = inconclusive; x = not tested or not shown. Only part of the results is shown; rates above refer to the full screens.
SMILES,YjeE inh,PK Bst
CCOC(=O)c1nnn(CC(=O)Nc2cc(F)ccc2F)c1C(=O)OCC,i,>57
O=C(Nc1ccccc1N1CCCCC1)c1cccc(F)c1,i,>57
CSc1nc2c(c(-c3ccc(O)cc3)c1C#N)CCC2,i,>57
Cc1cc(C)nc(SCC(=O)OCN2C(=O)c3ccccc3C2=O)n1,i,x
O=C(Cc1cc(=O)[nH]c(=O)[nH]1)NCC1CCCO1 (stereo not drawn),i,x
O=C(NCCCn1ccnc1)c1noc2c1CCc1ccccc1-2,i,>57
COCCn1c(Sc2ccc(C)cc2)nc2c1c(=O)[nH]c(=O)n2C,i,>57
COc1cc(C(=O)OCC(=O)N(C)Cc2ccccc2)cc(OC)c1OC,i,>57
CCOC(=O)c1c(NC(=O)COC(=O)c2c(C)noc2C)sc2c1CCC2,i,>57
COC(=O)c1ccc(C(NC(=O)OCc2ccccc2)/C(=C/[C@@H](C)C(=O)NCCc2c[nH]c3ccccc23)c2cccnc2)cc1 (stereo partly drawn),i,x
CN(CC(=O)Nc1ccncc1)S(=O)(=O)c1ccc(Cl)cc1,i,>57
O=C(O)CN1C(=O)C2(OCCCO2)c2ccccc21,i,>57
CCOC(=O)c1cnc(SCC(=O)c2ccccc2)nc1N,i,x
CCOc1cccc(/C(O)=C2/C(=O)C(=O)N(Cc3ccco3)C2c2ccncc2)c1 (stereo not drawn),i,>57
N#Cc1ccccc1Sc1ccccc1C(=O)N1CCOCC1,i,x
CCOc1ccc2[nH]c(=O)c(=O)[nH]c2c1,i,x
CN1C(=O)c2cccc3c(S(=O)(=O)Nc4ccccn4)ccc1c23,i,>57
CC(C)C1=CC2=CC[C@H]3[C@@](C)(CCC[C@]3(C)C(=O)O)[C@@H]2CC1,i,x
Nc1ccc(CCc2nc3ccccc3o2)cc1,i,i
O=C(c1cccnc1)N1CCc2ccccc2C1,i,x
COc1ccc(-c2nn3c(COc4ccccc4)nnc3s2)cc1OC,x,>25.6
O=C(NCCCCNC(=O)c1c(F)c(F)c(F)c(F)c1F)c1c(F)c(F)c(F)c(F)c1F,i,>57
COc1ccc(OCC(O)CN2C(=O)c3ccccc3S2(=O)=O)cc1 (stereo not drawn),i,x
Cc1ccc2nc(-c3cccnc3)oc2c1,i,i
Cc1csc(-c2coc3cc(O)cc(C)c3c2=O)n1,i,x
CCCC(=O)Nc1cc(OC)c(NC(=O)NC2CCCCC2)cc1OC,i,>57
CC1CCC2(CC1)NC(=O)N(CC(=O)NC(=O)NC1CCCC1)C2=O (stereo not drawn),i,>57
CCCCN(C(=O)Cn1nnc2ccccc21)C(C(=O)NCc1ccco1)c1ccncc1 (stereo not drawn),i,>57
CCOC(=O)N1CCN(S(=O)(=O)c2ccc3[nH]cc(C(=O)O)c(=O)c3c2)CC1,i,>57
CCNc1ncc2nc(-c3ccc(Cl)cc3)c(=O)n(Cc3cccs3)c2n1,i,x
CCOc1ccc(CC2CC(=O)NC2=O)cc1 (stereo not drawn),x,>25.6
Cc1noc(C)c1C(=O)N1CCC2(CCCN(c3ccccc3)C2)CC1,i,x
O=C(Cn1cnc2c(nnn2Cc2ccccc2)c1=O)NCC1CCCO1 (stereo not drawn),i,x
c1coc(-c2nc3ccccc3nc2-c2ccco2)c1,i,x
CN(Cc1ccco1)c1ccnc(-c2cccc(NS(C)(=O)=O)c2)n1,i,x
O=C(O)c1ccc(NS(=O)(=O)c2cccc3nsnc23)cc1,i,x
CCCS(=O)(=O)N1CCCC(C(=O)NCCCN2CCN(c3cccc(Cl)c3)CC2)C1 (stereo not drawn),i,>57
COc1ccc(OC)c(S(=O)(=O)NCc2csc(-c3ccccc3)n2)c1,i,>57
Clc1ccc(OCc2nn3c(-c4ccccc4)nnc3s2)c(Cl)c1,i,>57
COc1ccc(C(=O)NCC(=O)OC2CCCCC2=O)cc1 (stereo not drawn),i,>57
CCCCOc1ccc(-c2ncc(Cl)cn2)cc1,i,x
O=C(NC1CCCCC1)C1CCCN1S(=O)(=O)c1cccc2nsnc12 (stereo not drawn),i,>57
N#CCCCSc1nnc(-c2ccccn2)o1,i,>57
O=C(c1ccc(Cn2cc(Br)cn2)cc1)N1CCN(c2ccccc2)CC1,i,>57
NS(=O)(=O)c1ccc(NS(=O)(=O)c2cccs2)cc1,i,>57

# In another format: results already given
Compound	YjeE inh	PK Bst
CN(Cc1ccco1)c1ccnc(-c2cccc(NS(C)(=O)=O)c2)n1	i	x
O=C(O)c1ccc(NS(=O)(=O)c2cccc3nsnc23)cc1	i	x
CCCS(=O)(=O)N1CCCC(C(=O)NCCCN2CCN(c3cccc(Cl)c3)CC2)C1 (stereo not drawn)	i	>57

# Following part.
SMILES,YjeE inh,PK Bst
Cc1ccc2[nH]c3c(c2c1)CN(C(=O)CN1CC(C)OC(C)C1)CC3 (stereo not drawn),x,i
COc1cccc(-n2c(=O)[nH]cc(C(=O)Nc3ccc4c(c3)OCCO4)c2=O)c1,i,x
COc1ccccc1N1CCN(CCN2C(=O)c3ccccc3C(C)(C)C2=O)CC1,i,x
CCC(C)NC(=O)C1CCN(S(=O)(=O)c2cccc3cccnc23)CC1 (stereo not drawn),i,x
O=C(COC(=O)c1cccnc1)c1ccc(Cl)cc1,i,x
COc1cc2cc(CN(CCCO)S(=O)(=O)c3ccccc3Cl)c(=O)[nH]c2cc1OC,i,>57
CC1(C)Cc2c(c(-c3ccco3)[nH]c(=O)c2C#N)CS1,x,>25.6
CCCn1c(C)cc(C(=O)COc2ncnc3sccc23)c1C,i,x
COc1ccc(OC)c(S(=O)(=O)N(C)CC(=O)Nc2ccccc2OC)c1,i,>57
Cn1c(=O)[nH]c(=O)c2c1nc(SCC(O)CO)n2Cc1ccccc1Cl (stereo not drawn),i,>57
CCn1nc(C(=O)N2CCN(Cc3ccc4c(c3)OCO4)CC2)c2ccccc2c1=O,i,>57
O=C(CSc1nnc(-c2ccccc2)o1)N1CCOCC1,i,>57
CCOC(=O)N1CCN(S(=O)(=O)c2ccc(F)c(C(=O)Nc3cccc(C)c3C)c2)CC1,i,>57
CCOC(=O)c1c(N)nn(C(=O)C(C)(C)C)c1-c1ccccc1,i,>57
O=C(O)CCc1n[nH]c(=S)[nH]c1=O,i,x

# The last 4 records of the part before are carried over, then new ones follow.
SMILES,YjeE inh,PK Bst
O=C(CSc1nnc(-c2ccccc2)o1)N1CCOCC1,i,>57
CCOC(=O)N1CCN(S(=O)(=O)c2ccc(F)c(C(=O)Nc3cccc(C)c3C)c2)CC1,i,>57
CCOC(=O)c1c(N)nn(C(=O)C(C)(C)C)c1-c1ccccc1,i,>57
O=C(O)CCc1n[nH]c(=S)[nH]c1=O,i,x
S=c1[nH]nc(-c2ccc(Br)cc2)n1Cc1ccco1,i,>57
CCOc1ccccc1Oc1ccc(C(F)(F)F)cn1,i,>57
COc1ccc(OC)c(NC(=O)c2cc(S(=O)(=O)NCc3ccco3)ccc2F)c1,i,>57
O=C(Nc1c2c(nn1-c1ccc(Cl)cc1)CS(=O)(=O)C2)c1ccc2c(c1)OCO2,i,>57
O=C(Nc1ccccn1)NC1CCS(=O)(=O)C1 (stereo not drawn),i,x
CN(C)S(=O)(=O)c1ccc(C(=O)OCC(=O)NC(=O)NCc2ccccc2)cc1,i,>57
Cc1ccc(CNC(=O)c2nnn(-c3cccc(C)c3)c2N)cc1,i,>57
Cn1c(=O)c2c(nc(CN3CCc4ccccc4C3)n2Cc2ccc(F)cc2)n(C)c1=O,i,>57
CCN1CCN(Cc2nc3c(c(=O)[nH]c(=O)n3C)n2Cc2ccccc2Cl)CC1,i,x
CCCC(=O)c1ccc(N2CCN(C(=O)OCC)CC2)c(F)c1,i,>57
CCOc1ccc(C(=O)NCc2ccncc2)cc1,i,>57
COc1cccc(Cn2c(NCC(C)C)nc3c2c(=O)n(C)c(=O)n3C)c1,x,>25.6
CC1CCCC(C)N1C(=O)CSc1nnc(CSc2ncccn2)n1C (stereo not drawn),i,>57
CCCCn1c(SCC(=O)Nc2cc(C)on2)nc2c1c(=O)n(C)c(=O)n2C,i,>57
CCCCN(CCCC)C(=O)CSc1nnc(-c2cc(OC)c(OC)c(OC)c2)o1,i,>57
N#Cc1c(N)nc(SCC(=O)NCCc2ccccc2)c(C#N)c1-c1cccs1,x,>25.6
O=C(NCc1cccs1)C1CC(c2ccccc2O)=NO1 (stereo not drawn),i,>57
COCCn1c(=O)cnc2cnc(Oc3ccccc3)nc21,i,x
O=C(Oc1cccc2cccnc12)c1ccc(Br)o1,i,i
CC(C)C1C(C#N)=C(N)Oc2n[nH]c(C(C)(C)C)c21 (stereo not drawn),x,>25.6
CCOC(=O)N1CCC(N2CCN(S(=O)(=O)c3ccc(NC(C)=O)cc3)CC2)CC1,i,>57
CCOC(=O)c1nnn(-c2nonc2N)c1CNC(C)C,i,>57
CC1(C)CC2CC(C)(CN2C(=O)COC(=O)c2ccc(Cl)cc2N)C1 (stereo not drawn),i,>57
Cc1ccc(C2NC(=O)c3c(sc4c3CCN(C)C4)N2)s1 (stereo not drawn),i,x
CCOC(=O)c1cc(NC(=O)c2cc(C)on2)cc(C(=O)OCC)c1,i,>57
CC(=O)N1CCC[C@@]2(CCN(Cc3nccs3)C2)C1,i,x
CC(C)C(=O)N1CCN(c2nc(-c3ccccc3)c3c(c2C#N)CC(C)(C)OC3)CC1,x,>25.6
CCc1cc2c(NCc3ccco3)ncnc2s1,i,x
CCOc1ccc2nc(NCCNS(=O)(=O)c3ccccc3)c(C#N)cc2c1,i,>57
O=C(Nc1ccc(Cl)cc1)N1CCC(c2nc(-c3ccc(F)cc3)no2)CC1,i,x

# Gathered by group, the entries above with a COOH group.
SMILES,YjeE inh,PK Bst
O=C(O)CN1C(=O)C2(OCCCO2)c2ccccc21,i,>57
CC(C)C1=CC2=CC[C@H]3[C@@](C)(CCC[C@]3(C)C(=O)O)[C@@H]2CC1,i,x
CCOC(=O)N1CCN(S(=O)(=O)c2ccc3[nH]cc(C(=O)O)c(=O)c3c2)CC1,i,>57
O=C(O)c1ccc(NS(=O)(=O)c2cccc3nsnc23)cc1,i,x
O=C(O)CCc1n[nH]c(=S)[nH]c1=O,i,x

# (next part)
SMILES,YjeE inh,PK Bst
CCN(CC)C(=O)CN1C(=O)C2CC=C(Cl)CC2C1=O (stereo not drawn),i,>57
O=C(NCc1ccccc1)[C@H]1C[C@@H]1[C@H](NP(=O)(c1ccccc1)c1ccccc1)c1ccccc1,i,x
COc1ccccc1N1CCN(C(c2ccc(C)cc2)c2nnnn2C(C)C)CC1 (stereo not drawn),i,>57
CCCC(=O)c1cc(-c2nc3ccccc3n2C)n(C)c1,i,>57
O=c1c(-c2ccccc2)nc2cncnc2n1-c1ccccc1,i,x
Nc1ccccc1C(=O)Nc1cccc(C(=O)O)c1,i,x
COc1ccc(-c2noc(CN(C)S(=O)(=O)c3ccc(Cl)cc3)n2)cc1OC,i,>57
CCN(CC)c1ccc(C=N/C(C#N)=C(\N)C#N)cc1,i,>57
CCSc1nnc(-c2cccc(S(=O)(=O)N(CC)CC)c2)n1Cc1ccccc1,i,>57
COc1ccc(C(=O)CSc2nnc(-c3ccccc3)o2)cc1,i,x
CC(C)(C)n1nc2c(c1NC(=O)c1ccco1)CS(=O)C2 (stereo not drawn),i,>57
COc1ccc(C)cc1NC(=O)CN1CCN(S(=O)(=O)c2ccc(C(C)C)cc2)CC1,i,>57
Nn1c(SCC(=O)NC(=O)NC2CCCC2)nnc1-c1ccccc1F,i,>57
Cc1cc(C)n(-c2nc3ccccc3c(=O)n2OC2CCCCC2)n1,i,>57
CCOc1ccc2nc3sc(C(=O)N4CCN(C)CC4)c(N)c3cc2c1,i,x
CCN(C(=O)Cn1c(=O)oc2ccccc21)c1cccc(C(F)(F)F)c1,i,>57
Cc1n[nH]c(C)c1SCC(=O)Nc1ccc(F)cc1,i,>57
Nc1nc(Nc2ccccc2)nc2ccccc12,i,5.47*
Cc1cc(C(=O)N[C@H](c2ccccc2)[C@@]2(C)C[C@@H]2[C@@H](C)C(=O)Nc2ccc3ccccc3c2)no1,i,x
C(=N\c1nccs1)/Nc1nccs1,i,>57
Cc1nc2nc(C)n(-c3ccccc3)c2s1,i,u
COc1cc(C)nc(NCc2ccccc2)n1,i,>57
C=CCn1c(C)c(C(C)=O)c(N2CCOCC2)nc1=S,i,x
O=C(c1ccc2snnc2c1)N1CCN(c2ccccn2)CC1,i,x
CCn1nc(C(=O)Nc2ccc(S(=O)(=O)Nc3nccs3)cc2)c2ccccc2c1=O,i,>57
CCOC(=O)c1c(Nc2ccccc2N)cc(C)nc1C,i,>57
CS(=O)(=O)N1CCC2(CC1)CN(C(=O)Nc1cccc(C#N)c1)C2,i,x
CC(C)c1ccc(N2C(=O)[C@@H]3Cc4ccccc4CN3C2=O)cc1,i,>57
CCOC(=O)NC1C=CS(=O)(=O)C1 (stereo not drawn),i,>57
Cc1ccc(-c2nc(CS(=O)CC(=O)N3CCN(c4ncccn4)CC3)c(C)o2)cc1 (stereo not drawn),i,x
CN(C)C(=O)c1ccc(-c2cncnc2NCCc2cnc[nH]2)cc1,i,x
Cc1ccc2oc(=O)c3cnn(CC(=O)NCCC(C)C)c3c2c1,i,x
Cn1c(=O)c2c(nc(Oc3ccc4c(c3)OCO4)n2Cc2ccc(Cl)cc2)n(C)c1=O,i,>57
COc1ccccc1CNC(=O)COC(=O)c1ccc(NC(N)=O)cc1,i,>57
COc1ccc(NC2=NCCC(=O)N2Cc2cccs2)cc1,i,>57
O=C(O)CCCC[C@H]1SC[C@H]2NC(=O)N[C@@H]21,i,x
CC(=O)Nc1ccc(S(=O)(=O)N(C)c2ccc(O)cc2)cc1,i,>57
COC(=O)CSc1nc2cc(Cl)ccc2c(=O)n1C1CCCC1,i,>57

# Source: PubChem BioAssay
